D2 ag = human D2 receptor agonism in beta-arrestin assay; activation, % (no concentration beside the values); P14416; 360,000 tested, 0.084% active; DiscoveRx PathHunter D2 beta-arrestin, luminescence, 90 min; 100% = 57 uM dopamine signal; in the data active = activation above about 40%; inconclusive = about 15% to 40%; inactive = below about 15%; further: compound concentration not given in the record; the text of the record calls up to 30% inactive
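Agonist mode: compounds alone added to overnight-plated D2 PathHunter cells for 90 min at 37 C, with 57 uM final dopamine (EC100) defining full response. Beta-arrestin recruitment detected by chemiluminescent reagent, read after 1 h at ambient temperature.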
TRPV1 PAM = human TRPV1 potentiation. Q8NER1. TRPV1-expressing cells, Fluo-8 calcium influx, capsaicin EC20 potentiation; host cell line not named in the record; control for the full effect not named in the record. potentiation, % at 8.33 µM. 320,000 tested, 0.02% active; active means potentiation above 80%; inconclusive means 30% to 80%; inactive means below 30%; further: 0% is about no effect
Target sequence (Q8NER1 whole entry, looked up): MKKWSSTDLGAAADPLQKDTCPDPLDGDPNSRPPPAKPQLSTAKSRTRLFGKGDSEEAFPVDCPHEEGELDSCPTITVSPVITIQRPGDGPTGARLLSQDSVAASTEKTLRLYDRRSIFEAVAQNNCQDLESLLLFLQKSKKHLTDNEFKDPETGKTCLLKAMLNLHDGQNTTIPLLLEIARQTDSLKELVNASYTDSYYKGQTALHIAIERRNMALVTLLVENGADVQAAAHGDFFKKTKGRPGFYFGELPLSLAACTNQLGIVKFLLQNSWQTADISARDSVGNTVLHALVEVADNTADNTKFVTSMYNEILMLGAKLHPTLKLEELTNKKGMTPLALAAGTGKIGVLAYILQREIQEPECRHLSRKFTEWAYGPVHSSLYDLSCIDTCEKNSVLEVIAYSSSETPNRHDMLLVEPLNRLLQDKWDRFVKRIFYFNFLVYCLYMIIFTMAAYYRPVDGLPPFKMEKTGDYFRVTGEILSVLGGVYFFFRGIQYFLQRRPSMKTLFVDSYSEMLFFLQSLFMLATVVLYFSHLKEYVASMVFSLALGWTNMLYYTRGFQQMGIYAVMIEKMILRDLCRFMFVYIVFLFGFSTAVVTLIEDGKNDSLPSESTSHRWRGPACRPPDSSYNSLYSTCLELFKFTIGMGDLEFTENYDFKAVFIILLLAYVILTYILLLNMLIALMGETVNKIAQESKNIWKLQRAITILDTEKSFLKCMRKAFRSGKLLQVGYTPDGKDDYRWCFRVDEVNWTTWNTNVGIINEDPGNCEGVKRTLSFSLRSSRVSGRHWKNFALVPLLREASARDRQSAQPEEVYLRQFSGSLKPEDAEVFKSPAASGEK
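TRPV1-expressing cells were cultured overnight at 35.5C and loaded with Fluo-8 calcium dye for 40 to 90 min at room temperature. After a 10 s baseline, compound was added and calcium influx was read kinetically for 3 min (ex 480/em 520 nm).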
D2 PAM = human D2 receptor positive allosteric modulation | 360,000 tested, 0.23% active | DiscoveRx D2 beta-arrestin cells, luminescence, 90 min; 100% = 57 uM dopamine signal | potentiation, % (concentration not given with the values); active = potentiation of 50% or more; inconclusive = 30% to 50%; inactive = 30% or less;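 further: compound concentration not given in the record; tested on top of an EC20 dose of dopamine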
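PathHunter beta-arrestin assay in DiscoveRx D2 cells. Compounds were added with an EC20 of dopamine (50 nM final) for 90 min at 37 deg C. Luminescence was read 1 h after detection reagent, with 57 uM dopamine as the EC100 control.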
Sfp inh = inhibitors of Bacillus subtilis Sfp phosphopantetheinyl transferase; Q9F4F7; Biochemical Sfp PPTase activity, qHTS; Potency, µM, inactives show max response, negative = inhibition, most hits filed as inhibitors; 310,000 tested, 3.5% active; AID 1490; active means well fitted inhibition curve with a large enough effect; inconclusive means small, poorly fitted or top-dose-only effect, or another doubt; inactive means no such curve, though single readings can be large or run the other way;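 further: the enzyme is Sfp with the accession as filed and its product quenches rhodamine fluorescence; potency means the concentration at half of the fitted maximal effect; 0% = enzyme reaction without inhibitor and -100% = no enzyme wells; top concentration of the series not given in the record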
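After 15 min at room temperature with compound, 15 nM Sfp received 5 uM rhodamine-CoA plus 12.5 uM BHQ-2-ybbR (50 mM Hepes pH 7.6, 10 mM MgCl2). Rate came from the fluorescence difference over 30 min, ex 525/em 598 nm.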
CtBP-E1A blk = CtBP/E1A binding inhibition; 340,000 tested, 0.49% active; AID 651724; AlphaScreen GST-E1A/His-CtBP binding, 1536-well; hits give low values; control for the full effect not named in the record; activity change, % (concentration not given with the values); in the data active means activity change below about -65%; inconclusive means about -30% to -65%; inactive means above about -30%; further: on the % scale 0 is the no-effect control and ±100 the full control effect
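In 5 uL wells, 23 nL compound meets equimolar GST-E1A and His-CtBP (5X stock 125 nM each) for 2 h, 37 °C. Beads (5X, 50 ug/mL) then 1 h, 37 °C, dark.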
PINK1 modulator = modulators of PINK1 expression; PINK1 immunofluorescence, high-content cytometry, 24 h; Potency, µM (titrated, usually from 76.6 µM), for inactives: top-dose activation (PINK1 increase), actives largely listed as activators; 410,000 tested, 0.2% active; AID 624263; active = well fitted activation curve with a large enough effect; inconclusive = small, poorly fitted or top-dose-only effect; inactive = flat fitted curve, though single readings scatter; cell line not stated here;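 further: potency means the concentration at half of the fitted maximal effect; % of control where 0% means no effect; nearly all actives have a fitted effect of over 65% in size; a mitochondrial uncoupler was the plate control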
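Stable cell line, 250 cells/well, 12 h attachment; compounds pinned at 5 concentrations, 24 h; CCCP control. Fixed with nuclear dye, primary antibodies 12 h at 10 degrees C, secondary plus cell stain; laser-scanning cytometer read.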
Six1-Eya2 blk = blocks human Six1 binding to Eya2; 360,000 tested, 0.56% active; AID 651725; AlphaScreen GST-Six1/His-Eya2 binding, biochemical; hits give low values; control for the full effect not named in the record; Q15475+O00167; activity change, % (test concentration not listed); in the data active = activity change below about -65%; inconclusive = about -30% to -65%; inactive = above about -30%; further: on the % scale 0 is the no-effect control and ±100 the full control effect; compound concentration not given in the record
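Homogeneous AlphaScreen proximity assay pairing GST-Six1 with His-tagged Eya2 (added as 5X mix: 250 nM and 500 nM) in 50 mM Tris pH 8.0, 300 mM NaCl, 1 mM TCEP. Glutathione donor and nickel acceptor beads; 1 h, 37 °C, dark.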
* hit, by the source's call; ? = inconclusive; . = no result given; & = joins results of further samples; [ ] = another dose, or the depositor's remark.

Sample of the layout:
SMILES	D2 ag	TRPV1 PAM	D2 PAM	Sfp inh	CtBP-E1A blk	PINK1 modulator	Six1-Eya2 blk
CCCC(=O)Nc1nn(CCC)c2nc3ccccc3cc12	-0.5	.	5.6	?	-1.0	1.1%	21.1
Oc1ccc(Cl)cc1CNCC1CCCCC1	-2.4	18.5	-26.5	.	-18.1	9.1%	9.9

Main list (from the top)
SMILES	D2 ag	TRPV1 PAM	D2 PAM	Sfp inh	CtBP-E1A blk	PINK1 modulator	Six1-Eya2 blk
CCCC(=O)Nc1nn(CCC)c2nc3ccccc3cc12	-0.5	.	5.6	?	-1.0	1.1%	21.1
Oc1ccc(Cl)cc1CNCC1CCCCC1	-2.4	18.5	-26.5	.	-18.1	9.1%	9.9
Cc1cc(OCc2cc(C(=O)NC(C)c3c(C)nn(C)c3C)no2)cc(C)c1Cl (stereo unspecified)	5.6	15.1	-10.5	2.0%	0.1	7.4%	-1.6
C=CCOc1cccc(C2C(C(=O)c3ccc(C)o3)=C(O)C(=O)N2CCN(C)C)c1 (stereo unspecified)	-3.4	-5.7	-15.7	5.8%	-4.9	0.3%	-1.3
Cc1nc(SCC(=O)Nc2ccc(F)cc2)c2oc3ccccc3c2n1	-2.0	-15.9	-12.3	2.2%	4.8	11.2%	-0.3
Cc1ccc(NC(=O)Cn2cnc3cc([N+](=O)[O-])ccc3c2=O)c(Cl)c1	-1.9	11.7	2.6	8.4%	-7.9	11.2%	-10.1
CC1CCN(C(=O)c2cc3c(ccc4ccccc43)o2)CC1	-2.9	7.5	-11.4	-19.8%	0.8	-0.3%	11.7
CN(C)C(=O)COC(=O)/C=C/c1cn(-c2ccccc2)nc1-c1cccs1	0.8	5.0	-2.7	-10.2%	3.7	-0.3%	7.5
Cn1c(=O)c2c(nc(NCc3ccco3)n2CCc2ccccc2)n(C)c1=O	0.1	27.1	12.1	11.4%	-11.2	1.8%	-29.3
Cc1cc(C)cc(NC(=S)N(C)C)c1	-2.1	.	-9.5	2.0%	1.7	-1.3%	9.5
Cc1cccc(OCC(=O)Nc2ccccc2N2CCCC2)c1C	-2.7	-1.6	10.7	.	-29.8	15.4%	-15.4
CC(C)CNC(=O)Cn1nc(C(F)(F)F)c2c1CCCC2	-1.8	13.5	-5.5	11.8%	13.4	2.2%	0.5
S=c1[nH]nc(Cc2n[nH]c(=S)n2-c2ccccc2)n1-c1ccccc1	-0.1	27.1	-11.7	?	.	3.8%	-8.2
C[C@H](CO)N1C[C@H](C)[C@@H](CN(C)S(=O)(=O)c2ccc(F)cc2)Oc2c(NC(=O)CCC(F)(F)F)cccc2C1=O	-1.1	.	0.3	.	5.1	1.4%	6.5
COc1ccc(N2CCN(C(CNC(=O)C3CCCCC3)c3ccco3)CC2)cc1 (stereo unspecified)	-3.0	-0.2	-18.2	.	-4.0	-2.8%	-1.3
Cc1ccc(CNC(=O)CCSCc2ccc(C)cc2)cc1	-0.8	-5.0	-7.5	10.8%	7.0	0.4%	3.6
CC1=CC(C)(C)Nc2cc(C)c(C)cc21	1.7	-2.7	-1.4	?	6.8	?	-27.9
CC(OC(=O)c1cccnc1Cl)C(=O)Nc1ccc2c(c1)OCO2 (stereo unspecified)	7.1	.	-1.1	.	.	2.8%	-0.9
O=c1c2ccccc2c(C=Nc2ccc(O)cc2)c(O)n1-c1nccs1	5.8	3.9	2.7	12.7%	-26.9	2.0%	-21.4
COCc1cc(C)nc(SCC(=O)Oc2ccc(Cl)cc2)c1C#N	-4.0	-14.9	-3.6	-25.1%	-9.3	0.8%	24.1
COc1cccc(NC(=O)CNC(=O)c2ccc(C)cc2)c1	0.0	-4.2	-3.6	10.8%	14.6	0.0%	4.5
O=[N+]([O-])c1ccc(/C=N/N2CCN(Cc3ccccc3)CC2)cc1	1.9	3.2	-0.9	-0.9%	?	-0.9%	?
O=C(NCc1cccc(Br)c1)c1cc(-c2ccccc2)nn1CC1CC(c2cccnc2)=NO1 (stereo unspecified)	1.3	.	-32.1	.	0.0	1.3%	-1.2
COCCCNc1nc2nonc2nc1N1CCN(C2CCCC2)CC1	1.5	4.3	-2.3	10.9%	7.5	3.7%	1.7
COc1cc2c(c(OC)c1OC)-c1ccc(NC(=O)c3ccc(F)cc3)c(=O)cc1[C@@H](NC(C)=O)CC2	-0.1	-7.6	-11.9	4.2%	.	9.7%	-12.3
COCc1c(C(=O)Nc2ccc3nc(N4CCOCC4)sc3c2)oc2ccccc12	7.8	24.2	20.2	.	-1.3	-0.5%	11.1
CCn1c(=O)n(CC)c2cc(S(=O)(=O)N3CCOCC3)ccc21	-0.7	-1.5	-4.7	22.5%	12.7	5.0%[38.3 µM]	4.5
CCCCCCCCCCCn1nnnc1N	2.3	.	-13.7	.	8.3	-0.1%	6.3
COc1ccccc1NC(=O)CSc1nnnn1C1CCCCC1	-9.5	-5.6	-0.3	9.7%	0.6	0.2%	7.4
COc1cc2c(cc1OC)CN(C(=O)c1cccc(S(=O)(=O)N(C)C)c1)CC2	0.2	-1.3	4.6	4.8%	5.7	-0.6%	6.4
CCOc1ccccc1C(=O)NC1CCN(Cc2ccccc2)CC1	1.9	-3.8	-13.2	0.6%	4.1	1.3%	-0.8
CCCCNC(=O)C1(C)CCN1C(=O)c1cc2ccccc2s1 (stereo unspecified)	-7.3	.	-8.5	.	26.9	4.4%	12.3
C=CCOc1ccc(Br)cc1/C=C1\NC(=S)N(C(C)=O)C1=O	-1.9	-0.9	-5.8	9.1%	-9.4	8.8%	-4.2
COc1cccc(CNC(=O)CCC2CCCN(Cc3ccc4c(c3)CCO4)C2)c1 (stereo unspecified)	-2.9	8.5	-14.5	9.1%	9.5	-0.8%	1.1
CCCCNCc1cc(OCC)c(OCC(N)=O)cc1Br	0.6	2.1	-1.5	25.9%	15.4	-1.8%[38.3 µM]	1.3
COc1ccc(C2/C=C\CN(C(=O)NC(C)C)CC(=O)N2Cc2ccc(F)cc2)cc1 (stereo unspecified)	-2.1	-56.6	-7.8	-2.7%&21.0%	0.0	-0.6%	17.4
Cc1[nH]c(=O)c(C#N)cc1-c1csc(-c2ccccc2)n1	-1.8	2.7	-23.8	10.2%	-1.4	0.3%	-3.9
CCC(C(=O)NCCCN(CC)Cc1ccccc1)n1nc(C)c2sc3ccccc3c2c1=O (stereo unspecified)	2.2	-0.4	1.6	5.3%	.	1.3%	2.0
COc1ccc(C(=O)c2cnc(/N=C/N(C)C)s2)cc1	-1.0	-7.3	-5.1	18.1%	-13.2	-1.9%	1.6
CC(C(=O)OCc1nnc(-c2ccccc2)o1)N1C(=O)c2ccccc2C1=O (stereo unspecified)	4.0	-15.0	15.3	-14.3%	10.4	0.4%	8.0
CCN(CC)c1ccc(C(=O)OCc2c(C)noc2C)cc1	3.1	-3.0	-7.3	-7.1%	1.4	2.0%	-1.3
CCOc1ccccc1-n1c(COc2ccc(C)cc2)nnc1SCC(N)=O	-1.3	-11.6	-2.8	0.5%	-0.8	-3.5%[38.3 µM]	3.2
COC(=O)c1ccc(NC2c3ncccc3C(=O)N2Cc2cccs2)cc1 (stereo unspecified)	-4.3	-67.4	-4.3	-9.4%	-13.4	3.0%	5.0
COc1ccc(NC2=NCCC2)cc1	-2.0	1.4	0.4	13.2%	-1.5	0.5%	8.1
COc1ccc(S(=O)(=O)N2CCN(CC(=O)Nc3sccc3C(N)=O)CC2)cc1OC	4.2	-4.0	5.6	.	.	9.9%	-11.4
Cn1nnnc1SCC(=O)c1c(N)n(C)c(=O)n(C)c1=O	0.9	0.6	13.9	-6.4%	4.7	1.1%	-1.0
CCOC(=O)c1[nH]ncc1CN1CCCC(C(=O)c2ccc(OC)cc2C)C1 (stereo unspecified)	-4.5	2.8	-14.0	-0.9%	.	-0.6%	-0.5
COc1ccc(C(=O)OCc2c(F)cccc2Cl)cc1S(=O)(=O)N1CCOCC1	-2.1	-9.0	0.4	.	.	0.1%	-6.2
COc1cccc(CNc2ncn[nH]2)c1OCc1ccccc1F	-4.9	-23.4	-13.9	18.1%	2.5	4.1%	-5.2
COC(=O)Nc1nnc(Cc2ccc(OC)cc2)s1	-2.1	10.3	-13.5	4.6%	1.5	3.1%	-1.0
O=C(Nc1cc2nn(-c3ccccc3)nc2cc1Cl)c1ccco1	-10.6	18.1	-37.6	-4.1%	7.4	5.5%	2.6
OCc1n[nH]c(CO)n1	-4.9	?	-8.5	6.6%	6.8	2.9%[38.3 µM]	-0.5
O=C(CCCN1C(=O)c2cccc3cccc(c23)C1=O)N1CCN(c2ccccc2O)CC1	-1.2	-4.5	-4.9	1.1%	-0.9	2.1%	?
Cc1cccc(N(CC(=O)NC2CCCC2)C(=O)c2cc3cc4cccc(C)c4nc3s2)c1C	-2.2	.	-12.9	3.4%	6.2	4.5%[38.3 µM]	-1.4
CC(=O)Nc1c(NC(C)C)c2ccccc2oc1=O	-1.7	-14.0	-12.3	12.8%	-8.5	-1.2%	6.2
CCc1ccc(C(=O)COC(=O)CNC(=O)C2CCCCC2)cc1	-2.8	-1.3	1.3	.	-14.6	0.4%&5.2%	7.6
O=C(NCc1ccc(N2CCCC2=O)cc1)c1cn(CCc2ccccc2)nn1	-2.9	-5.0	-16.5	-0.7%	11.4	-0.4%	4.4
O=C(OCC(=O)N1CCCCC1)c1ccccc1SCC(=O)N1CCCCC1	-7.5	16.6	-19.2	12.3%	12.4	0.2%	3.0
O=c1[nH]c(CSc2nnc(Cc3ccccc3)o2)nc2ccccc12	-1.8	1.2	-4.2	-13.0%	2.2	4.8%	-2.4
COc1ccc(/C(C)=N/N=C2/NC(=O)CC(C(=O)O)S2)cc1 (stereo unspecified)	-4.2	-5.8	-3.7	4.6%	-9.1	0.7%	12.5
CN(CCCNC(=O)CN1C(=O)CC(C)(C)S(=O)(=O)c2ccccc21)C1CCCCC1	-1.6	3.9	-15.1	4.7%	6.1	?	3.8

An excerpt of these results, field by field.
O=C(NCc1ccc(N2CCCC2=O)cc1)c1cn(CCc2ccccc2)nn1
  D2 ag = -2.9
  TRPV1 PAM = -5.0
  D2 PAM = -16.5
  Sfp inh = -0.7%
  CtBP-E1A blk = 11.4
  PINK1 modulator = -0.4%
  Six1-Eya2 blk = 4.4

O=C(OCC(=O)N1CCCCC1)c1ccccc1SCC(=O)N1CCCCC1
  D2 ag = -7.5
  TRPV1 PAM = 16.6
  D2 PAM = -19.2
  Sfp inh = 12.3%
  CtBP-E1A blk = 12.4
  PINK1 modulator = 0.2%
  Six1-Eya2 blk = 3.0

O=c1[nH]c(CSc2nnc(Cc3ccccc3)o2)nc2ccccc12
  D2 ag = -1.8
  TRPV1 PAM = 1.2
  D2 PAM = -4.2
  Sfp inh = -13.0%
  CtBP-E1A blk = 2.2
  PINK1 modulator = 4.8%
  Six1-Eya2 blk = -2.4
